# Assay outcomes: PubChem, several laboratories
# Mtb H37Rv: M. tuberculosis H37Rv growth inhibitors, H37Rv strain (AID 1626) | actives 0.95% (n = 220,000) | M. tuberculosis H37Rv growth inhibition; higher % means a stronger effect | inhibition, % at 10 µM; hits with a dose series show IC50 in µM;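 active = confirmed in a dose series; inconclusive = inhibition above 80% but not taken into the dose series; inactive = below 80% or under 30% at every dose of the series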;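 note: bacteria incubated seven days before Alamar blue readout; 0% = bacteria only wells and 100% = bacteria with antibiotic wells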
# YopH inh: blocks Yersinia enterocolitica YopH tyrosine phosphatase | fluorescence Ex485/Em525 | inhibition, %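 (about 10 µM by stock and volumes)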 | actives 0.16% (n = 140,000) | AID 898;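 active = inhibition of 50% or more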;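 note: controls were vehicle for no effect and minimum signal wells for full effect; inactives centre near -20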
# RecA intein inh: Mtb RecA intein splicing inhibition. cell-free RecA intein splicing, fluorescence. inhibition, %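 (about 9 µM by stock and volumes)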. actives 0.75% (n = 290,000). AID 2221; in the data active = inhibition above about 30%; inconclusive = no clear call, values can overlap the other calls;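 note: 0% = vehicle wells and 100% = reference inhibitor control wells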
# Target sequence (P9WHJ3 whole entry, looked up): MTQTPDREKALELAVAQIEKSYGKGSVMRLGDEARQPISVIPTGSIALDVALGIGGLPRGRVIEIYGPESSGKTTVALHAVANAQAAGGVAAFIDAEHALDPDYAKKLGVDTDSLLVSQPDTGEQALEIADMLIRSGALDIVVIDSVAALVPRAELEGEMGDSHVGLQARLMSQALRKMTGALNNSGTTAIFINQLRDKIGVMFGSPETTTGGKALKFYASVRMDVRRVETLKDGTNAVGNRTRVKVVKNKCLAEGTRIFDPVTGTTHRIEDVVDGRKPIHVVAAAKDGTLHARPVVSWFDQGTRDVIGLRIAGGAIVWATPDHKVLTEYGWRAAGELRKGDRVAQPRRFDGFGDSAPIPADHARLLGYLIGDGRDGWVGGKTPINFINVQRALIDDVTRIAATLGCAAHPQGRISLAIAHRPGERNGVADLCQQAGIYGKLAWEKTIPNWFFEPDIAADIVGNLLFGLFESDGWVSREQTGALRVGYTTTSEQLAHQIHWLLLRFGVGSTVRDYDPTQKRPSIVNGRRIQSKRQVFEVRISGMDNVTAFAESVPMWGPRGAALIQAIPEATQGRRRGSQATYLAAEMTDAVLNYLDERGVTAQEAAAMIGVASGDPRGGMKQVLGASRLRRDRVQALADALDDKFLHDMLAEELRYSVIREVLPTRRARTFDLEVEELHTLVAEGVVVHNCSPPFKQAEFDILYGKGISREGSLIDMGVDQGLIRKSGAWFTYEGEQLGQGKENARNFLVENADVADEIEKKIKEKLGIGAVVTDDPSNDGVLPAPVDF
# Mtb betalactam: beta-lactam sensitization of Mtb H37Rv. M. tuberculosis H37Rv growth with meropenem, percent inhibition; hits of this screen are not shown here. inhibition, % at 25 µM. actives 0.27% (n = 330,000);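 active = about 74% or more and at least 40 points above the plate without the antibiotic, then above 30% in a dose series; inconclusive = first-round hits that could not be retested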;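 note: growth measured after seven days incubation then overnight dye step; 0% = bacteria only wells and 100% = bacteria with antibiotic; twin plates without the antibiotic show which effects depend on it; some results filed as inactive read as strong as hits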
# Arbovirus inh: arbovirus infection inhibition. arbovirus infection cell-based antiviral screen. actives 0.37% (n = 200,000). inhibition, % at 10 µM;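 active = inhibition from about 30%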;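 note: bluetongue infection of BSR cells; cell survival read as ATP light after 72 h; 0% = infected wells without compound and 100% = uninfected wells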
# Arbovirus inh repeat: second read-out of Arbovirus inh, no call of its own (marks repeat the call); inhibition, %; measured here: 10K subset replicate screen; many hits read low in the repeat;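 first of two repeat runs on a subset; 0% = infected and 100% = uninfected wells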
# Numbers without * were called inactive; i = inactive; u = inconclusive; x = no result given.
SMILES,Mtb H37Rv,YopH inh,RecA intein inh,Mtb betalactam,Arbovirus inh,others
Cc1cc(C)nc(SC2CCCCC2O)n1 (stereo not drawn),-2.0%,-6.8,-1.1,8.1,7.2,
CCOC(=O)c1[nH]c2cc3c(cc2c1NC(=O)CN1CCC(C)CC1)OCO3,x,-12.7,0.5,5.7,1.4,
N=c1sccn1CC(=O)Nc1cc(S(=O)(=O)N2CCCC2)ccc1Cl,-2.4%,x,2.2,-3.0,9.2,
O=C(OCCOc1cccc(Cl)c1)c1cc(S(=O)(=O)N2CCOCC2)ccc1F,x,x,5.5,0.3,x,
COc1ccc([N+](=O)[O-])cc1-c1[nH]c(-c2ccc(C(=O)O)cc2)nc1-c1ccccc1,x,x,1.5,18.2,x,
COc1ccc(CCNC(=O)Cn2cnc3c(cnn3-c3ccccc3Cl)c2=O)cc1OC,-1.9%,-20.7,-1.3,-5.2,6.5,
CCN=C1SC(CC(=O)NCCc2ccc(OC)cc2)C(=O)N1CC (stereo not drawn),6.7%,-22.8,-0.1,5.5,-3.0,
c1ccc(-c2cc3c(N4CCCC4)ncnc3s2)cc1,2.6%,x,-2.1,-4.3,-5.0,
Cc1ccc(NS(=O)(=O)c2ccc(NC(=O)c3cccc(NC(=O)C(C)C)c3)cc2)cc1,0.6%,-30.4,4.7,-2.8,-24.5,
Nn1cnc2scc(-c3cccs3)c2c1=O,-2.8%,x,-0.3,-2.0,14.5,
Fc1ccccc1COc1ccc(C(=S)N2CCCC2)cc1,x,x,6.1,-1.8,x,
CC(=O)NNC(=O)c1nc(-c2ccccc2)c(C)o1,-13.1%,x,-0.9,1.3,x,
O=C(O)c1ccccc1C(=O)Nc1cc(C(F)(F)F)ccc1N1CCCC1,x,x,8.7,4.7,x,
CCn1c(=O)c(C(=O)Nc2ncccc2C)c(O)c2ccccc21,-3.9%,x,1.6,88.6,1.5,
CC(C)(O)C(=O)NN(C(=O)c1ccccc1)c1ccc2ccccc2c1,0.8%,-2.8,3.5,2.5,-8.8,
COc1ccc(S(=O)(=O)N(C)c2ccc(C(=O)Nc3cccnc3)cc2)cc1,x,x,0.7,-16.7,x,
CCCNC(=O)Cn1nc([N+](=O)[O-])c([N+](=O)[O-])c1C,-3.6%,-21.5,-6.5,2.2,-2.1,
COc1ccc(NC(=O)N2CCCC(c3nc(-c4ccc(OC)cc4)no3)C2)cc1 (stereo not drawn),0.1%,x,1.4,9.6,0.5,
Cc1ccc(CNC(=O)CNC(=S)N(Cc2ccccc2)Cc2ccccc2F)cc1,-1.5%,x,8.2,x,-26.0,
Cc1ccc(C(=O)NC2CCCCCC2)o1,4.1%,-12.6,-0.9,-2.6,-0.7,

# Three records drawn at random from the list so far:
SMILES,Mtb H37Rv,YopH inh,RecA intein inh,Mtb betalactam,Arbovirus inh,others
c1ccc(-c2cc3c(N4CCCC4)ncnc3s2)cc1,2.6%,x,-2.1,-4.3,-5.0,
CC(C)(O)C(=O)NN(C(=O)c1ccccc1)c1ccc2ccccc2c1,0.8%,-2.8,3.5,2.5,-8.8,
Fc1ccccc1COc1ccc(C(=S)N2CCCC2)cc1,x,x,6.1,-1.8,x,

# The main list resumes, starting 2 compounds before the break.
SMILES,Mtb H37Rv,YopH inh,RecA intein inh,Mtb betalactam,Arbovirus inh,others
Cc1ccc(CNC(=O)CNC(=S)N(Cc2ccccc2)Cc2ccccc2F)cc1,-1.5%,x,8.2,x,-26.0,
Cc1ccc(C(=O)NC2CCCCCC2)o1,4.1%,-12.6,-0.9,-2.6,-0.7,
Cc1cc(C)c(C(=O)Cn2cnc3cc([N+](=O)[O-])ccc3c2=O)cc1C,-2.7%,x,-2.4,9.4,-9.0,
COc1cc(OC)c(NC(=O)c2cccc(F)c2)cc1Cl,11.7%,-12.2,2.6,3.3,-11.0,
C=CCn1c(COc2ccccc2F)nnc1SCC(=O)Nc1cc2oc3ccccc3c2cc1OC,-0.7%,-18.4,1.2,-1.4,-3.0,
COc1cccc(CN(C)Cc2cc(=O)oc3cc(O)c(Cl)cc23)c1,x,x,i,-3.8,x,
COc1cc(Cl)ccc1OCc1cc(C(=O)N(C)CC2CCCCO2)no1 (stereo not drawn),x,x,1.0,1.6,x,
N#Cc1cc2c(ccc3ccccc32)oc1=O,u,x,-84.5,96.3,-5.0,
CCc1ccc(NC(=O)N(CCCN2CCOCC2)C(C)c2cc3cccc(OC)c3o2)cc1 (stereo not drawn),-8.3%,-19.0,1.5,-12.6,10.5,
O=C(CSc1nnc(-c2ccco2)o1)NC(=O)Cc1ccccc1,-7.9%,-27.7,x,0.4,0.2,
COC(=O)c1ccc2[nH]cc(CCO)c2c1,x,x,-1.7,-11.5,x,
Cc1nc(NCC2CCCO2)nc2c1C(=O)CC(C)(C)C2 (stereo not drawn),-7.2%,-38.9,1.1,-1.9,-4.9,
O=C(c1ccc(Cl)cc1)C1CCCN(Cc2ccon2)C1 (stereo not drawn),-3.5%,x,1.2,0.2,1.2,
O=C(c1ccccc1)c1cccc[n+]1[O-],x,x,-0.7,-4.6,x,
COc1ccc(C)cc1S(=O)(=O)Nc1ccc2c(c1)OCCO2,x,x,1.6,71.6,x,
CCC1=NN(C(=O)Cc2ccc(OC)cc2)C(O)(C(F)(F)F)C1 (stereo not drawn),-9.9%,-35.2,1.1,6.2,1.3,
Cc1ccc2[nH]c(=O)c(C3C(C#N)=C(N)Oc4c3ccc3cccnc43)cc2c1 (stereo not drawn),-6.8%,-20.8,x,-4.3,-36.2,
CS(=O)(=O)N(CC(=O)O)c1ccc(Oc2ccccc2)cc1,-16.8%,-34.7,-0.4,-1.5,7.4,
O=C(Nc1ccccc1Cl)c1ccc(=O)[nH]n1,x,x,5.7,-9.1,x,
COc1ccc(NC(=O)CCn2c(=S)[nH]c3ccccc3c2=O)cc1OC,x,x,-0.6,2.8,x,
CCN(CC(=O)Nc1ccc2c(c1)CCC2)Cc1nc2ccccc2c(=O)[nH]1,-0.4%,-28.0,0.1,47.8,-6.2,
CC(=O)Nc1ccc(OCC(O)Cn2c(C)nc3ccccc32)cc1 (stereo not drawn),5.2%,-5.5,x,-11.5,1.3,

# Sorted by formula weight (largest number first): part of the list above
SMILES,Mtb H37Rv,YopH inh,RecA intein inh,Mtb betalactam,Arbovirus inh,others
O=C(OCCOc1cccc(Cl)c1)c1cc(S(=O)(=O)N2CCOCC2)ccc1F,x,x,5.5,0.3,x,
CCCNC(=O)Cn1nc([N+](=O)[O-])c([N+](=O)[O-])c1C,-3.6%,-21.5,-6.5,2.2,-2.1,
CC(=O)NNC(=O)c1nc(-c2ccccc2)c(C)o1,-13.1%,x,-0.9,1.3,x,

# Of the compounds above, these have two or more sulfur atoms.
SMILES,Mtb H37Rv,YopH inh,RecA intein inh,Mtb betalactam,Arbovirus inh,others
N=c1sccn1CC(=O)Nc1cc(S(=O)(=O)N2CCCC2)ccc1Cl,-2.4%,x,2.2,-3.0,9.2,
Nn1cnc2scc(-c3cccs3)c2c1=O,-2.8%,x,-0.3,-2.0,14.5,

# Following part:
SMILES,Mtb H37Rv,YopH inh,RecA intein inh,Mtb betalactam,Arbovirus inh,others
O=C(Cn1c(Cc2ccccc2)nc2ccccc21)NCc1ccc2c(c1)OCO2,-5.5%,-49.3,2.3,6.0,0.4,
O=C(COc1ccc(Cl)cc1)NCCN1CCCCC1,2.1%,x,2.7,-3.6,3.4,
CC1CN(c2nc3c(c(=O)n(C)c(=O)n3C)n2Cc2c(F)cccc2Cl)CC(C)O1 (stereo not drawn),1.0%,-12.9,-3.1,1.4,-1.5,
COC(=O)[C@@H](NC(=O)N1CCC(C)CC1)C(C)C,0.6%,x,-5.6,8.8,x,
Cc1ccc(-c2cc(C(=O)Nc3nccs3)c3ccccc3n2)c(C)c1,9.6µM*,-27.3,8.8,99.0,9.4,
COc1cc(OC)cc(C(=O)Nc2ccc([N+](=O)[O-])cn2)c1,5.9%,-26.3,0.3,-2.2,1.9,
CCCN1C2CCCC1CC(NC(=O)c1ccc(C(C)(C)C)cc1)C2 (stereo not drawn),x,x,4.2,2.7,x,
COc1ccccc1-c1nc(NC(C)=O)n[nH]1,6.6%,-24.8,0.9,3.8,3.4,Arbovirus inh repeat=1.8
Cc1ccc(OCC(=O)Nc2ccc(S(=O)(=O)Nc3ccccn3)cc2)c(C)c1,-1.5%,-28.6,4.6,1.9,1.4,
Cc1nn(CCc2n[nH]c(=S)n2C)c(C)c1Br,-3.7%,-21.8,0.0,x,-0.9,
CCN(CC)S(=O)(=O)c1cccc(-c2n[nH]c(=S)n2Cc2ccccc2)c1,-8.6%,x,-0.8,-1.3,-0.1,
O=C(Nc1nc2ccccc2[nH]1)c1cccc(Cl)c1,x,x,-0.3,90.6,x,
N=c1c(C(=O)NC2CCCCC2)cc2c(=O)n3ccccc3nc2n1CC1CCCO1 (stereo not drawn),x,x,-369.0,-5.0,x,
OCC[C@@H]1C[C@H](O)[C@@H](O)[C@]2(OCc3ccccc32)O1,x,x,-2.5,-6.7,x,
Cc1cc(NC(=O)CSCC(=O)Nc2ccccc2N2CCCCC2)no1,x,x,2.7,-10.3,x,
O=C(COC(=O)c1ccc(O)cc1)Nc1cccc(S(=O)(=O)NC2=NCCCCC2)c1,0.9%,x,-0.5,0.5,x,
O=C(CSc1ccc([N+](=O)[O-])cn1)Nc1ccc(N2CCOCC2)cc1,u,x,1.3,x,-2.1,
Cc1cccc2sc(NC(=O)c3ccc(Cl)s3)nc12,3.2%,-31.4,-3.5,1.1,19.4,Arbovirus inh repeat=4.7
c1ccc2oc(SCc3nc4ccccc4s3)nc2c1,13.9%,-19.0,2.7,16.1,5.9,
COc1ccc(CN2CCC(=O)N([C@H](CO)CC(C)C)CC2)cc1OC,x,x,-4.1,1.2,x,
CC(Sc1nncs1)C(=O)Nc1ccc2c(c1)OCCO2 (stereo not drawn),x,x,-0.8,2.8,x,
Cc1cccc(C(=O)Nc2ccc(C(=O)Nc3ccc(O)cc3)cc2)c1,x,x,-1.6,-2.2,x,
CCSc1ccccc1-c1nc(-c2ccncc2)no1,x,x,3.2,3.0,x,
O=C(Cn1cnc2c(nnn2-c2cccc(Cl)c2)c1=O)N1CCOCC1,8.8%,x,0.0,-3.7,2.2,Arbovirus inh repeat=2.0
Cc1nc2ccc(S(=O)(=O)N(C)CC(=O)N3CCc4ccccc43)cc2s1,-2.2%,-38.9,0.2,-7.5,-5.1,
Cc1ccc(C(CNC(=O)C(=O)Nc2ccc3c(c2)OCCO3)N2CCN(C)CC2)cc1 (stereo not drawn),x,x,2.0,-1.6,x,
C=C(C(=O)c1ccccc1)C(CC(=O)c1ccccc1)c1ccccc1 (stereo not drawn),5.4%,-27.0,-3.9,1.0,-21.2,
CCCCCC(=O)Nc1ccc(N2CCN(C(=O)c3ccccc3)CC2)cc1,2.1%,-12.5,1.3,91.5,-8.9,
O=C(NCc1ccco1)c1cnn2c(C(F)F)cc(-c3ccccc3)nc12,1.3%,-4.0,-8.3,-2.9,3.5,
CCOC(=O)N1CCC(NC(=O)CS(=O)Cc2nc(-c3ccc(OC)c(OC)c3)oc2C)CC1 (stereo not drawn),1.7%,-30.0,2.6,9.0,1.5,
CCOc1ccc(S(=O)(=O)NCCC(=O)OCC(=O)c2ccc(NC(C)=O)cc2)cc1,x,x,2.1,-0.9,x,
COc1ccc(S(=O)(=O)N(C)c2ccc(C(=O)N3CCC(C(N)=O)CC3)cc2)cc1OC,6.3%,x,-2.0,2.4,-2.8,
O=C1CC2(CCCCC2)Oc2ccc(Cl)cc21,-8.8%,x,2.6,-6.8,x,

# These rows are one share of the data; count on the stated rates, not on these rows.
